D2 agonist: activates the human D2 dopamine receptor. P14416. DiscoveRx PathHunter D2 beta-arrestin, luminescence, 90 min; 100% = 57 uM dopamine signal. activation, % (concentration not given with the values). actives 0.084% (n = 360,000); in the data active = activation above about 40%; inconclusive = about 15% to 40%; inactive = below about 15%; further: compound concentration not given in the record; the text of the record calls up to 30% inactive
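DiscoveRx PathHunter D2 beta-arrestin cells (2,100/well) attached overnight, then compound-stimulated 90 min at 37 C in HBSS/10 mM HEPES/0.1% Tween-20 buffer; beta-galactosidase complementation read by luminescence after 1 h at ambient temperature. Dopamine 57 uM final (EC100) as control.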
D2 potentiator: potentiates the human D2 dopamine receptor allosterically. P14416. DiscoveRx D2 beta-arrestin cells, luminescence, 90 min; 100% = 57 uM dopamine signal. potentiation, % (concentration not given with the values). actives 0.23% (n = 360,000). AID 624464; active = potentiation of 50% or more; inconclusive = 30% to 50%; inactive = 30% or less;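 further: compound concentration not given in the record; tested on top of an EC20 dose of dopamine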
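D2 cells co-treated with compound plus 50 nM dopamine (EC20) for 90 min at 37 deg C to detect potentiation. Beta-arrestin recruitment was read as enzyme-fragment luminescence after 1 h at ambient temperature. Full response was set by 57 uM dopamine.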
Six1-Eya2 blk: inhibitors of human Six1/Eya2 interaction; AlphaScreen GST-Six1/His-Eya2 binding, biochemical; stronger effect = lower value; control for the full effect not named in the record; activity change, % (no concentration beside the values); actives 0.56% (n = 360,000); AID 651725; in the data active = activity change below about -65%; inconclusive = about -30% to -65%; inactive = above about -30%; further: on the % scale 0 is the no-effect control and ±100 the full control effect; compound concentration not given in the record
Target sequence (O00167 whole entry, looked up): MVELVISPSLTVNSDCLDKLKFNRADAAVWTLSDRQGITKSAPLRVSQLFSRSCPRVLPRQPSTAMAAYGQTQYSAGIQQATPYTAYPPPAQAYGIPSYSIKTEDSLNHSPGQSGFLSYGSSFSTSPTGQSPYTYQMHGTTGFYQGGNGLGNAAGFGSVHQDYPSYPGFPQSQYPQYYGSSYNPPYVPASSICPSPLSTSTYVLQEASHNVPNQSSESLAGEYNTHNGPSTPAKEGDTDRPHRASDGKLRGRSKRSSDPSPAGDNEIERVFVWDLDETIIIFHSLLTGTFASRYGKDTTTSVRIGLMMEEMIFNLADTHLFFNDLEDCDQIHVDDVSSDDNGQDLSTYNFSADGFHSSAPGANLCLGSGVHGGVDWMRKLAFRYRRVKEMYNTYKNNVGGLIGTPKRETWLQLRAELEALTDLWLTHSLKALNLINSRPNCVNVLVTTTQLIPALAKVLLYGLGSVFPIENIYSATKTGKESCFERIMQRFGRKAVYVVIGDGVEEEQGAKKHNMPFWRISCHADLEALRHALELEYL
Target sequence (Q15475 whole entry, looked up): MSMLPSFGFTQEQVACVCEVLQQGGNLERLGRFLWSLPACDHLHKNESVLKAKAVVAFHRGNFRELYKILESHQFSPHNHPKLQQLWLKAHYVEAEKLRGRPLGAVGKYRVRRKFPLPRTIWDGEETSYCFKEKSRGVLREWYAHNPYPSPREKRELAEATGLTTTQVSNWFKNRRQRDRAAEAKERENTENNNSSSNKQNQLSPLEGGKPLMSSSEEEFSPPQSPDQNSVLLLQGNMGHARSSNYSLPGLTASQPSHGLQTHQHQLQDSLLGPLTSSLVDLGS
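AlphaScreen with GST-Six1 and His-Eya2 (5X mix: 250 nM and 500 nM), glutathione donor and nickel acceptor beads; buffer 50 mM Tris pH 8.0, 300 mM NaCl, 1 mM TCEP; 1 h at 37 C in the dark.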
TRPML1 agonist: activates the human TRPML1 channel | activation, % (no concentration beside the values) | TRPML1-expressing cells, Ca2+ dye fluorescence, FDSS; host cell line not named in the record; reference of the full effect not given here | Q9GZU1 | actives 0.12% (n = 410,000); in the data active = activation above about 50%; inconclusive = about 30% to 50%; inactive = below about 30%; further: 0% is about no effect; the text of the record puts the active cut at 80%
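In this qHTS format, compounds were pin-transferred onto Ca8-dye-loaded TRPML1-DL cells induced with Tet overnight, and intracellular Ca2+ fluorescence was recorded kinetically for 110 s after a 10 s baseline. A subsequent 4uM final 54-4 (EC80) addition followed by a second 110 s read served as the antagonist phase.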
CtBP-E1A blk: blocks the CtBP interaction with E1A; actives 0.49% (n = 340,000); AlphaScreen GST-E1A/His-CtBP binding, 1536-well; stronger effect = lower value; control for the full effect not named in the record; activity change, % (no concentration beside the values); in the data active means activity change below about -65%; inconclusive means about -30% to -65%; inactive means above about -30%; further: on the % scale 0 is the no-effect control and ±100 the full control effect; compound concentration not given in the record
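AlphaScreen with 125 nM GST-E1A and 125 nM His-CtBP (5X stocks) in Tris pH 8.0, 300 mM NaCl, BSA, Tween 20, TCEP. Compounds preincubated 2 h at 37 deg C, then glutathione donor/nickel acceptor beads added for 1 h at 37 deg C in dark.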
PINK1 expr mod: PINK1 expression modulation; PINK1 immunofluorescence, high-content cytometry, 24 h; Potency, µM (titrated, usually from 76.6 µM), for the others: at the highest dose activation (PINK1 increase), actives largely listed as activators; actives 0.2% (n = 410,000); AID 624263; active = well fitted activation curve with a large enough effect; inconclusive = small, poorly fitted or top-dose-only effect; inactive = flat fitted curve, though single readings scatter; cell line not stated here;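 further: potency means the concentration at half of the fitted maximal effect; % of control where 0% means no effect; nearly all actives have a fitted effect of over 65% in size; a mitochondrial uncoupler was the plate control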
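PINK1 protein level read as immunofluorescence by microplate cytometer in a fixed, stained stable cell line after 24 h exposure to five compound concentrations, with CCCP as control.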
* hit, by the source's call; u = inconclusive; x = no result given; & = joins results of further samples; [ ] = remark or other dose.

SMILES	D2 agonist	D2 potentiator	Six1-Eya2 blk	TRPML1 agonist	CtBP-E1A blk	PINK1 expr mod
Cc1nc(-c2ccccc2)cn2c1nc1ccccc12	6.0	2	0	-1.1	6	1.0%
CS(=O)(=O)n1nc(NCc2cccs2)nc1NCc1cccs1	4.3	-5	12	2.0	2	-0.7%
O=C(NCC(=O)N(c1ccc(F)cc1)C(C(=O)NCC1CCCO1)c1ccccc1)c1ccco1 (stereo not drawn)	-1.0	3	7	0.7	-1	1.4%
CN1CCN(C(=O)c2ccc(N(C)S(=O)(=O)c3cccs3)cc2)CC1	-3.2	-6	10	-0.2	-1	5.0%
Cc1ccn2c(CNCCn3cccn3)c(C(=O)N3CCCCCC3)nc2c1	-2.8	-9	-4	-0.5	4	-0.5%
CCc1nnc(NC(=O)c2ccc(NS(=O)(=O)c3ccccc3)cc2)s1	0.0	6	3	-0.9&0.0	-1	-0.1%
Cc1ccc(SCC(=O)NNC(=O)CNC(=O)c2ccccc2F)cc1	-4.1	0	3	0.6	0	-1.5%
COc1ccc(C(=O)COC(=O)CCCN=C2NS(=O)(=O)c3ccccc32)c(OC)c1	-6.8	-1	0	0.9	-1	1.2%
COc1ccc(S(=O)(=O)Nc2cc3c4c(c2)CC(=O)N4CCC3)cc1OC	-0.6	-7	2	-0.7	1	-0.5%
COc1cc(Br)c(C(C)NC(=O)c2cccc(Br)c2)cc1OC (stereo not drawn)	-1.2	-5	-1	0.2	1	-5.2%[38.3 µM]
O=C(CSC1=NCCS1)Nc1ccc(S(=O)(=O)N2CCCCCC2)cc1	5.3	2	0	0.5	0	-1.2%[38.3 µM]
O=C(Cn1ccc2ccccc2c1=O)NCCC(=O)Nc1cccnc1	-4.2	-5	-3	-1.0	4	0.4%
Cn1c(=O)oc2cc(S(=O)(=O)N3CCC(N4CCCCC4)CC3)ccc21	-6.2	0	3	-0.1	7	0.6%
CC(C)=C(NC(=O)c1ccccc1)C(=O)Nc1ccc(C(=O)O)cc1	2.7	3	4	0.7	0	1.3%
Cc1cc(OC2CCCCC2)nc(NCc2ccccc2)n1	-5.8	-4	5	-0.1	6	-0.9%
O=C(Nc1ccccc1)/C(=C/c1cccc(Br)c1)NC(=O)c1ccco1	0.3	-11	-2	2.1	5	10.0%
O=C(c1cc2cc(Br)cc(Br)c2oc1=O)N1CCOCC1	-1.5	1	-3	-0.1	0	0.7%
N#CCCn1cc(CNCc2ccccc2)c(-c2cccc([N+](=O)[O-])c2)n1	-0.7	-8	0	0.4	1	-1.0%
O=C(COc1ccc(F)cc1)NCC1(N2CCOCC2)CCCCC1	1.1	-5	8	-0.1	13	-0.7%
COc1cc([N+](=O)[O-])ccc1N/C=C/C(=O)c1cccs1	-4.4	11	-4	27	-12	0.3%[38.3 µM]
COC(=O)c1ccc(CN2C(=O)c3ccccc3C2=O)o1	6.7	-4	-1	3.0	5	-0.5%
CCNc1nc(Sc2ccc(C)cc2)cc(C(F)(F)F)n1	-4.8	-9	24	0.4	24	4.3%
CC(=O)c1ccc(NC(=O)COC(=O)Cc2ccsc2)cc1	0.6	17	-4	-1.8	x	2.5%
Cc1ccccc1S(=O)(=O)N(C)C[C@@H]1OCc2cnnn2CCCC(=O)N([C@@H](C)CO)C[C@H]1C	-9.0	2	4	-0.1	4	-0.6%
O=C(OC1CCOC1=O)c1ccc(S(=O)(=O)N2CCCCCC2)cc1 (stereo not drawn)	-0.6	8	6	0.3	-3	-1.1%
COc1ccc(OCC(O)CN2CCN(c3ncccn3)CC2)cc1 (stereo not drawn)	u	-19	-2	0.1	10	-2.8%
COCCCN1C(=O)/C(=C\c2ccc3c(c2)OCO3)C(C(=O)OC)=C1C	-7.7	-3	2	0.4	2	2.1%
COc1ccc(C2(C(=O)c3ccccc3)C(=O)c3ccccc3C2=O)cc1	-2.6	8	-2	0.8	x	1.6%
COc1cc(C(CCN2CCOCC2)c2c(OC)cc(OC)c3c(C)cc(=O)oc23)cc(OC)c1OC (stereo not drawn)	-2.1	-19	-3	0.2&-0.1	-2	-0.5%
Cc1ccc(NS(=O)(=O)c2c(C(=O)N3CCCC3)c(C)n(C)c2C)cc1	-17	-8	2	-1.1	0	-0.4%
O=C1CCN(S(=O)(=O)c2ccc(Cl)cc2)CCN1	0.0	-12	4	x	-11	1.9%
c1ccc(N2CCN(c3ncnc4sc5c(c34)CCC5)CC2)cc1	-4.1	-17	-27	5.8	-28	0.3%
Cc1nc2c(cnn2-c2ccccc2)c(=O)[nH]1	-3.2	2	-15	0.2	7	0.3%
Cc1cc(C)n2cc(CSc3nncn3C)nc2n1	-0.7	-5	5	0.6	x	2.2%
COc1ccccc1-c1cnc(C(O)c2ccc(F)c(F)c2)[nH]1 (stereo not drawn)	1.7	-8	-10	-0.3	-7	0.8%
Cc1noc2ncnc(SCc3ccc(C(F)(F)F)cc3)c12	9.3	u	32	1.6	26	3.2%
Cc1ccc(C23CC4CC(CC(CN)(C4)C2)C3)cc1	-6.8	-22	1	6.8	-3	-1.0%
O=C(COC(=O)c1ccccc1C(=O)c1ccccc1)Nc1cccc([N+](=O)[O-])c1	-2.8	-6	0	1.0	-12	4.2%
O=C(CCc1nnc2ccc(N3CCC4(CC3)OCCO4)nn12)NCc1ccccc1Cl	-6.3	-4	4	0.0	x	-0.3%
CCC(O)c1cc2c(cc1NC(=O)c1cccs1)OCCO2 (stereo not drawn)	4.5	7	4	1.1	-7	3.6%
CCc1ccc2[nH]c3nc(SCC(=O)NNC(=O)c4ccc(C(C)(C)C)cc4)nnc3c2c1	-2.0	-5	-1	-0.3	0	3.3%[38.3 µM]
COC(=O)Nc1ccc(S(=O)(=O)NC2CCS(=O)(=O)C2)cc1 (stereo not drawn)	-1.8	-2	3	0.9	0	1.9%
CN1C(=O)C2(CCCCC2)C1c1ccccc1 (stereo not drawn)	-0.9	-3	2	2.0	-9	-1.8%
O=C(CCSCCC(=O)Nc1c(F)c(F)c(F)c(F)c1F)Nc1c(F)c(F)c(F)c(F)c1F	0.9	-5	10	1.5	x	1.4%
Cn1cnnc1SCC(=O)NCCc1ccccc1	0.2	-6	-9	-0.4	-12	2.6%[38.3 µM]
CCOC(=O)C1C(=O)C(C(=O)OCC)C(c2cccnc2)NC1c1cccnc1 (stereo not drawn)	0.1	17	-1	0.1	-2	1.6%
CC1=C/C(=N\OS(=O)(=O)c2ccccc2)C(C)=CC1=O	u	79*	-3	11	-1	-0.6%
CCOC(=O)c1c(C)c(C(=O)N2CCCCCC2)c(C)n1C	-1.2	-2	-1	0.2	4	-0.7%[38.3 µM]
Cc1ccsc1C(=O)NNC(=O)COc1ccc(Br)cc1	-3.2	-19	2	0.3	28	4.7%
COCCNC(=O)/C(C#N)=C/c1ccc(C(=O)O)cc1	-2.8	-44	7	0.2	x	1.9%
O=c1c2ccccc2ncn1Cc1nc2ccccc2s1	-3.0	-11	4	-0.7	-1	-0.5%
COc1ccc(NS(=O)(=O)c2ccc(-n3cnnn3)cc2)cc1OC	0.9	-4	-1	0.8	x	0.9%
CC(=O)c1cccc(NC(=O)c2cc(-c3ccncc3)nc3ccccc23)c1	-3.4	0	-11	0.1	-20	4.1%
Cc1ccc(NC(=O)COc2cccc(/C=C3\SC(=S)N(CCC(=O)O)C3=O)c2)cc1Cl	-1.2	1	-13	x	0	11%
Oc1ccc(N=Nc2nccs2)c(O)c1	-0.9	-15	-77*	-0.4	-92*	-0.6%
COC(=O)CSc1ccc2c(N)c(C(=O)OC)sc2c1	-4.7	0	2	0.3	19	4.1%[38.3 µM]
COc1ccc(C(=O)NC(=O)COC(=O)C2COc3ccccc3O2)cc1 (stereo not drawn)	1.3	-15	-2	-0.4	-3	0.5%
Cc1cc(Br)cn2c(Cc3ccccc3)c(-c3cccc(Br)c3)nc12	-7.9	-10	-1	0.1	2	0.4%
O=C(CC(Cc1ccccc1)C(=O)O)Nc1ccc(F)cc1 (stereo not drawn)	-0.6	1	11	-0.8	x	0.3%
CCCCn1c(C)cc(C)c(S(=O)(=O)c2ccccc2C)c1=O	-1.7	0	29	0.9	17	-0.2%

3 entries out of the list, arranged by molar mass, falling:
SMILES	D2 agonist	D2 potentiator	Six1-Eya2 blk	TRPML1 agonist	CtBP-E1A blk	PINK1 expr mod
Cc1ccc(NC(=O)COc2cccc(/C=C3\SC(=S)N(CCC(=O)O)C3=O)c2)cc1Cl	-1.2	1	-13	x	0	11%
Cc1ccsc1C(=O)NNC(=O)COc1ccc(Br)cc1	-3.2	-19	2	0.3	28	4.7%
O=C(CC(Cc1ccccc1)C(=O)O)Nc1ccc(F)cc1 (stereo not drawn)	-0.6	1	11	-0.8	x	0.3%

(next part)
SMILES	D2 agonist	D2 potentiator	Six1-Eya2 blk	TRPML1 agonist	CtBP-E1A blk	PINK1 expr mod
COc1ccc(S(=O)(=O)NCc2ccccn2)c(Cl)c1Cl	4.5	-8	8	0.0	5	0.4%
C/C(=N\NC(=O)Cc1ccccc1)c1cccnc1	3.8	-8	3	0.9	-3	-0.7%
COC(=O)CC(c1ccc(F)cc1)n1c(C)ccc1C (stereo not drawn)	-3.6	-6	0	-0.4	2	0.0%
COc1ccc(-c2nc(NC(=O)c3nc4nccc(C)n4n3)sc2C)cc1	10	0	-8	0.2	x	2.8%
CCN(CC(=O)Nc1c(F)cccc1F)C(=O)c1ccc(COc2ccccc2)cc1	2.8	25	-1	-1.3	-6	2.2%
O=C(CCCCCBr)N1CCC(CC2CC(c3cccc(Br)c3)=NO2)(C(=O)NCC2CCCCC2)CC1 (stereo not drawn)	-0.2	-28	-6	-0.4	-1	6.0%
O=C(ONc1ccc(N=NC(=O)c2ccccc2O)cc1)c1ccccc1	-7.5	-12	-6	4.3	-1	-1.8%
CCn1c(SCC(=O)Nc2nc(C)cs2)nnc1C(C)NC(=O)c1ccccc1 (stereo not drawn)	-3.5	-19	7	-0.8	2	0.6%
COc1ccc(OC(C)C(=O)N2CCCc3ccccc32)cc1 (stereo not drawn)	-2.6	-3	18	0.2	2	-2.7%

Among those listed so far, these contain a CF3 group.
SMILES	D2 agonist	D2 potentiator	Six1-Eya2 blk	TRPML1 agonist	CtBP-E1A blk	PINK1 expr mod
CCNc1nc(Sc2ccc(C)cc2)cc(C(F)(F)F)n1	-4.8	-9	24	0.4	24	4.3%
Cc1noc2ncnc(SCc3ccc(C(F)(F)F)cc3)c12	9.3	u	32	1.6	26	3.2%

Single records, as listed above. Values in the order: D2 agonist	D2 potentiator	Six1-Eya2 blk	TRPML1 agonist	CtBP-E1A blk	PINK1 expr mod
`O=C(ONc1ccc(N=NC(=O)c2ccccc2O)cc1)c1ccccc1` across the screens: -7.5	-12	-6	4.3	-1	-1.8%
`COc1ccc(OC(C)C(=O)N2CCCc3ccccc32)cc1` (stereo not drawn) across the screens: -2.6	-3	18	0.2	2	-2.7%
`O=C(CCCCCBr)N1CCC(CC2CC(c3cccc(Br)c3)=NO2)(C(=O)NCC2CCCCC2)CC1` (stereo not drawn) across the screens: -0.2	-28	-6	-0.4	-1	6.0%
`CCn1c(SCC(=O)Nc2nc(C)cs2)nnc1C(C)NC(=O)c1ccccc1` (stereo not drawn) across the screens: -3.5	-19	7	-0.8	2	0.6%
